NPYLR7 ag: mosquito NPYLR7 agonism; HEK293T NPYLR7/Galpha15, GCaMP6s calcium fluorescence; activation, % at 10 µM; 0.15% of 270,000 active; in the data active means activation above about 40%;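 further: 0% = vehicle and 100% = reference agonist at the receptor; some compounds past the cut are filed as inactive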
NPYLR7 ag max-min: second read-out of NPYLR7 ag, no call of its own (marks repeat the call); activation, %; measured here: Max-Min RFU normalised activation; some inactives read as strong as hits;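 span of the calcium signal over five minutes; 0% = vehicle and 100% = native peptide agonist; compound fluorescence can raise it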
* = called active by the depositor; & = joins results of further samples. A portion of the library, so the mix of outcomes need not match the whole.

`COc1ccc(/C=C/C(=O)N2CCC(c3ccccc3)CC2)cc1` gave NPYLR7 ag -5 and NPYLR7 ag max-min -14.
CC(=O)ON(C(C)=O)c1nc(-c2ccccc2)cc(-c2ccc(F)cc2)n1 was read as NPYLR7 ag -10 and NPYLR7 ag max-min -19.
For Cc1nonc1CC(=O)N1[C@@H]2CC[C@H]1CN(C)C(=O)C2 the results were NPYLR7 ag 1 and NPYLR7 ag max-min 1.
Screening Cc1noc(C)c1C(=O)NC(c1nccn1C)C1CC1 (centres undefined) returned NPYLR7 ag 2 and NPYLR7 ag max-min 0.
`CCOC(=O)c1sc(NC(=O)c2cc(OC)c(OC)c(OC)c2)c(C(=O)OCC)c1C` gave NPYLR7 ag -2 and NPYLR7 ag max-min -5.
`CCc1nc2ccc(C(=O)N3CCCCC3)cn2c1N(C)C=O` gave NPYLR7 ag 4 and NPYLR7 ag max-min 26.
`O=C1C2CC=CCC2C(=O)N1c1cccc(O)c1` (centres undefined) gave NPYLR7 ag 6 and NPYLR7 ag max-min 5.
For O=S1(=O)CCC(N(CC2CCCO2)S(=O)(=O)c2ccc(C3CCCCC3)cc2)C1 (centres undefined) the results were NPYLR7 ag 9 and NPYLR7 ag max-min 11.
Screening CCN(C)c1ccc(/C=C(\C#N)c2[nH]nc(N)c2C#N)cc1 returned NPYLR7 ag -3 and NPYLR7 ag max-min -6.
For CC(=O)N1CCCn2nc(C(=O)N3CCCC3c3ccccc3C)cc2C1 (centres undefined) the results were NPYLR7 ag 1 and NPYLR7 ag max-min -7.
`COc1ccccc1C1=NN(C(=O)CN2CCCC2)C(c2ccccc2OC)C1` (centres undefined) gave NPYLR7 ag 8 and NPYLR7 ag max-min 13.
O=C(Cc1ccc(F)cc1)N1CCN(c2ccc3nnc(-c4ccco4)n3n2)CC1 was read as NPYLR7 ag 4 and NPYLR7 ag max-min 0.
CC1=NC2=Cc3ccccc3NC2(O)NN1 (centres undefined) was read as NPYLR7 ag 3 and NPYLR7 ag max-min 8.
For CN(Cc1ncn[nH]1)C(=O)CCSc1ccccc1Cl the results were NPYLR7 ag -5 and NPYLR7 ag max-min -4.
Screening CN1C(=O)N(C)C2(c3ccccc3)NN3C(=O)CSC3=NC12c1ccccc1 (centres undefined) returned NPYLR7 ag 1&-2 and NPYLR7 ag max-min -2&-9.
Cc1ccsc1CN(Cc1ccc(F)cc1)C(=O)CN(C(=O)Nc1ccccc1Br)C1CCCCC1 was read as NPYLR7 ag -1 and NPYLR7 ag max-min 10.
Screening CCCn1cnnc1C(C)NC(=O)c1cc(C)nc2ccc(C)cc12 (centres undefined) returned NPYLR7 ag -8 and NPYLR7 ag max-min -8.
Screening O=S1(=O)NC(=NCc2ccc(-c3ccn[nH]3)cc2)c2ccccc21 returned NPYLR7 ag -2 and NPYLR7 ag max-min -2.
CCOC(=O)C1CCCN(C(=O)c2cc(-c3ccccc3)n(-c3ccccc3OCC)c2C)C1 (centres undefined) was read as NPYLR7 ag -5 and NPYLR7 ag max-min 1.
Cc1ccc(-c2ccc3c(c2)N(C(C)C)C(=O)COC3)cc1C was read as NPYLR7 ag 4 and NPYLR7 ag max-min 1.
Screening CCC(CC)C(=O)N(C)c1c(C)nc2c(OCCn3cccc3)cccn12 returned NPYLR7 ag 6 and NPYLR7 ag max-min -1.
Cc1sc2nc(CN(CCC(C)C)CC(O)COc3ccccc3)[nH]c(=O)c2c1C (centres undefined) was read as NPYLR7 ag 2 and NPYLR7 ag max-min 10.
For O=C(c1cc2nc(-c3ccccc3)cc(C(F)(F)F)n2n1)N(Cc1ccccc1)Cc1ccccc1 the results were NPYLR7 ag 11 and NPYLR7 ag max-min 8.
Screening CC(C)/C(Cl)=N\OC(=O)Nc1nnc(C(F)(F)F)s1 returned NPYLR7 ag -2 and NPYLR7 ag max-min -4.
For COC(=O)C1=CN(C2CC2)C=C(C(=O)OC)C1c1ccsc1 the results were NPYLR7 ag 7 and NPYLR7 ag max-min 0.
O=C(CC(c1ccc(OCc2ccccc2)cc1)c1c[nH]c2ccccc12)NCc1ccco1 (centres undefined) was read as NPYLR7 ag 22 and NPYLR7 ag max-min 24.
Screening CCOC(=O)N1CCC2(CC1)C(C#N)C(=O)N(C)C(=S)C2C#N (centres undefined) returned NPYLR7 ag 3 and NPYLR7 ag max-min -2.
`CC(C)CNc1n[nH]c(=S)s1` gave NPYLR7 ag 3 and NPYLR7 ag max-min 4.
CCc1ccccc1OC1CN(Cc2ncc[nH]2)C1 was read as NPYLR7 ag 22 and NPYLR7 ag max-min 8.
C=CCN(CC(=O)N(CCc1ccccc1)Cc1ccc(C)o1)C(=O)Nc1ccccc1 was read as NPYLR7 ag -17 and NPYLR7 ag max-min -27.
For CCOC(=O)C(CC)Sc1ccc2nnc(CCNS(=O)(=O)c3ccccc3)n2n1 (centres undefined) the results were NPYLR7 ag 3 and NPYLR7 ag max-min -4.
Screening CCOc1ccc(-n2c(C)cn3c4c(=O)n(CCN5CCCCC5)c(=O)n(C)c4nc23)cc1 returned NPYLR7 ag 12 and NPYLR7 ag max-min 7.
`CC(C)(O)c1cn(C2CCN(C(=O)c3cccc4c(Cl)cccc34)CC2)nn1` gave NPYLR7 ag -3 and NPYLR7 ag max-min -4.
`COc1ccccc1C(=O)N1CCN(c2nc(C)nc(C)c2Cc2cc(C)ccc2C)CC1` gave NPYLR7 ag 0 and NPYLR7 ag max-min 3.
`COc1cc(-c2cc(NC(C)C)ncn2)cc(OC)c1OC` gave NPYLR7 ag 0 and NPYLR7 ag max-min 11.
`CCN(CC)c1ccc(CN(C(=O)NC(C)(C)C)C2CC2)c(OS(=O)(=O)CC)c1` gave NPYLR7 ag 8 and NPYLR7 ag max-min -2.
For COc1ccc(-n2ccnc(SCC(=O)Nc3c(C)cc(C)cc3C)c2=O)cc1 the results were NPYLR7 ag 7 and NPYLR7 ag max-min 5.
Screening Cc1cc(C)c2sc(N(CCCN3CCOCC3)C(=O)CCSc3ccccc3)nc2c1 returned NPYLR7 ag 0 and NPYLR7 ag max-min -6.
O=C(c1ccco1)N1CCC(n2ccnc2-c2ccccn2)CC1 was read as NPYLR7 ag -19 and NPYLR7 ag max-min -21.
`CCOC(=O)c1c(NC(=O)c2ccccc2OCC)sc2c1Cc1ccccc1-2` gave NPYLR7 ag 10 and NPYLR7 ag max-min 3.
`CC(C)(C)c1ccc(-c2ccnc(N3CCN(C(=O)COCc4ccccc4)CC3)n2)cc1` gave NPYLR7 ag 12 and NPYLR7 ag max-min 20.
`CC(CC1=CCCN(CC(N)=O)C1)NC(=O)/C=C/c1ccccc1` (centres undefined) gave NPYLR7 ag 2 and NPYLR7 ag max-min 2.
Screening C[C@@H]1CN(C(=O)NC2CCCCC2)C[C@H](C)O1 returned NPYLR7 ag -6 and NPYLR7 ag max-min -12.
COCCCN(Cc1c(-c2cccc(C)c2)noc1N1CCCC1)C(=O)Nc1ccc(C)cc1 was read as NPYLR7 ag 12 and NPYLR7 ag max-min 13.
For O=C(c1ccoc1)n1c(-c2ccccc2)csc1=Nc1ccc(F)cc1F the results were NPYLR7 ag -4 and NPYLR7 ag max-min -4.
For O=c1[nH]cnc(O)c1C(c1ccc2c(c1)OCO2)c1c(O)nc[nH]c1=O the results were NPYLR7 ag -1 and NPYLR7 ag max-min 1.
`Cc1ccc(C)c(-c2[nH]ncc2CN2CCN3C(=O)CN(C)C(=O)C3C2)c1` (centres undefined) gave NPYLR7 ag -2 and NPYLR7 ag max-min 0.
COc1ccccc1CNC(=O)CSc1ccc(NC(=O)c2cccc(F)c2)nn1 was read as NPYLR7 ag 0 and NPYLR7 ag max-min -2.
COc1ccc(-n2[nH]c(C)c(C3=C(N(C)Cc4ccccc4)C(=O)N(c4ccc5c(c4)OCO5)C3=O)c2=O)cc1 was read as NPYLR7 ag 30 and NPYLR7 ag max-min 36.
`CCn1c(SCC(=O)c2cc(C)n(C3CC3)c2C)nnc1-c1ccoc1C` gave NPYLR7 ag 1 and NPYLR7 ag max-min 1.
For COC(=O)c1ccccc1COn1c(=O)c(C)[n+]([O-])c2ccccc21 the results were NPYLR7 ag 17 and NPYLR7 ag max-min 6.
`CCn1c(SCc2ccc(C(=O)N3CCN(C)CC3)cc2)nnc1-c1ccccc1[N+](=O)[O-]` gave NPYLR7 ag -7 and NPYLR7 ag max-min -7.
Screening CC(=O)NC(NC(=S)Nc1cccc(C(=O)O)c1)C(Cl)(Cl)Cl (centres undefined) returned NPYLR7 ag -12 and NPYLR7 ag max-min -20.
Screening Cc1nnc(NCCC23CC4CC(CC(C4)C2)C3)c(C#N)c1C returned NPYLR7 ag 7&-4 and NPYLR7 ag max-min 3&-5.
For CCNC(=O)NC(=O)CSc1nnc(N(C)C)n1C(C)C the results were NPYLR7 ag 8 and NPYLR7 ag max-min 4.
Screening Cc1ccc(C(=O)NCc2nnc(SCC(=O)Nc3ccccc3C(F)(F)F)n2-c2ccc(F)cc2)cc1[N+](=O)[O-] returned NPYLR7 ag -6 and NPYLR7 ag max-min 2.
O=C(CCN1CCCCO1)N1CCN(C2CCCCC2)C(=O)C1 was read as NPYLR7 ag -1 and NPYLR7 ag max-min 8.
Screening COc1cccc(CNC(=O)CSc2ccc(NC(=O)C(C)C)nn2)c1 returned NPYLR7 ag -1 and NPYLR7 ag max-min -2.
`COc1ccc(N2C(=O)CN(C(=O)c3cccnc3SC)CC23CCCC3)cc1` gave NPYLR7 ag 4 and NPYLR7 ag max-min 3.
For Cc1cnc(C(=O)NC(C)c2nnc3n2CCCCC3)cn1 (centres undefined) the results were NPYLR7 ag 11&1 and NPYLR7 ag max-min 9&1.

Overlap with the part before: 6 entries; new compounds follow.
For CCNC(=O)NC(=O)CSc1nnc(N(C)C)n1C(C)C the results were NPYLR7 ag 8 and NPYLR7 ag max-min 4.
Screening Cc1ccc(C(=O)NCc2nnc(SCC(=O)Nc3ccccc3C(F)(F)F)n2-c2ccc(F)cc2)cc1[N+](=O)[O-] returned NPYLR7 ag -6 and NPYLR7 ag max-min 2.
O=C(CCN1CCCCO1)N1CCN(C2CCCCC2)C(=O)C1 was read as NPYLR7 ag -1 and NPYLR7 ag max-min 8.
Screening COc1cccc(CNC(=O)CSc2ccc(NC(=O)C(C)C)nn2)c1 returned NPYLR7 ag -1 and NPYLR7 ag max-min -2.
`COc1ccc(N2C(=O)CN(C(=O)c3cccnc3SC)CC23CCCC3)cc1` gave NPYLR7 ag 4 and NPYLR7 ag max-min 3.
For Cc1cnc(C(=O)NC(C)c2nnc3n2CCCCC3)cn1 (centres undefined) the results were NPYLR7 ag 11&1 and NPYLR7 ag max-min 9&1.
Screening CCOc1ccc(Oc2ccc(S(=O)(=O)N3CCOCC3)cc2NC(=O)C2(C#N)CCCC2)cc1 returned NPYLR7 ag -4 and NPYLR7 ag max-min -9.
`CCOC(=O)Cn1nc(C)c2cnn(C(C)(C)C)c2c1=O` gave NPYLR7 ag 9 and NPYLR7 ag max-min 9.
`COCCNC(=O)Cc1ccc(NS(=O)(=O)c2cccnc2)cc1` gave NPYLR7 ag -3 and NPYLR7 ag max-min -5.
`CCCN(CC(=O)N(Cc1ccc(F)cc1)Cc1ccco1)S(=O)(=O)c1ccc(Br)cc1` gave NPYLR7 ag -8 and NPYLR7 ag max-min -11.
`COc1ccc2cc(C(=O)C3CCCN(C(=O)c4ccoc4C)C3)ccc2c1` (centres undefined) gave NPYLR7 ag 10 and NPYLR7 ag max-min 4.
`O=C(NC(=S)NC1CCS(=O)(=O)C1)c1ccccc1F` (centres undefined) gave NPYLR7 ag 8 and NPYLR7 ag max-min 7.
O=C(NCCc1ccccc1)c1ccccc1N1CCC(NC(=O)C2CCC2)CC1 was read as NPYLR7 ag 10 and NPYLR7 ag max-min 10.
`CCOC(=O)C1(Cc2ccc(Cl)cc2)CCN(C(=O)C2CCCCCN2C)CC1` (centres undefined) gave NPYLR7 ag 6 and NPYLR7 ag max-min 4.
`COCCN(CC(=O)N(Cc1ccc(F)cc1)Cc1sccc1C)S(=O)(=O)c1cccc(C(F)(F)F)c1` gave NPYLR7 ag -11 and NPYLR7 ag max-min -16.
Screening CC(=O)NCCC1=CCN(CC(=O)Nc2ccc(C)cc2)CC1 returned NPYLR7 ag 17 and NPYLR7 ag max-min 2.
For Cc1nn2cc(CNC(=O)C3CCC(=O)N(Cc4ccccn4)C3)nc2s1 (centres undefined) the results were NPYLR7 ag 0 and NPYLR7 ag max-min 2.
Screening OC(CNCc1ccccc1I)c1ccccc1 (centres undefined) returned NPYLR7 ag 4 and NPYLR7 ag max-min 2.
For CCc1ccsc1C(=O)Nc1ccc(NC(C)=O)cc1Cl the results were NPYLR7 ag 4 and NPYLR7 ag max-min 0.
COC(=O)[C@H](NC(=O)c1cc(-c2ccccc2)nc2ccccc12)c1ccccc1 was read as NPYLR7 ag -2 and NPYLR7 ag max-min -15.
For Cc1sc2nc(-c3cccs3)nc(N3CCCC3C(N)=O)c2c1C (centres undefined) the results were NPYLR7 ag 10 and NPYLR7 ag max-min 12.
Screening Cc1nc2c(=O)n(CC(=O)N(C)c3ccccc3)nc(-c3cccs3)c2s1 returned NPYLR7 ag 6 and NPYLR7 ag max-min 2.
For COC(C(=O)N1CCN(Cc2ccc(-c3noc(-c4ccccc4)n3)cc2)CC1)c1ccccc1 (centres undefined) the results were NPYLR7 ag 6 and NPYLR7 ag max-min -2.
`O=C(CNCc1ccc(Br)o1)NC1CC1` gave NPYLR7 ag -7 and NPYLR7 ag max-min 653.
`CCOCCCn1c(=O)c(C#N)cc2c(=O)n3cccc(C)c3nc21` gave NPYLR7 ag 6 and NPYLR7 ag max-min 2.

Some of these compounds in order of SMILES length, falling:
Screening Cc1nc2c(=O)n(CC(=O)N(C)c3ccccc3)nc(-c3cccs3)c2s1 returned NPYLR7 ag 6 and NPYLR7 ag max-min 2.
`COc1ccc2cc(C(=O)C3CCCN(C(=O)c4ccoc4C)C3)ccc2c1` (centres undefined) gave NPYLR7 ag 10 and NPYLR7 ag max-min 4.
Screening OC(CNCc1ccccc1I)c1ccccc1 (centres undefined) returned NPYLR7 ag 4 and NPYLR7 ag max-min 2.

Two consecutive records out of the list so far, for reference:
`O=C(CNCc1ccc(Br)o1)NC1CC1` gave NPYLR7 ag -7 and NPYLR7 ag max-min 653.
`CCOCCCn1c(=O)c(C#N)cc2c(=O)n3cccc(C)c3nc21` gave NPYLR7 ag 6 and NPYLR7 ag max-min 2.

Screening data as filed in PubChem.
